VACV mCherry inh – inhibitors of vaccinia virus infection (mCherry reporter signal); Potency, µM (titrated, usually from 36.5 µM), inactives show at the highest dose activity change, negative = inhibition, hits mostly inhibitors; Vaccinia virus mCherry reporter infection, fluorescence; about a quarter of the inactives have no number; 0.63% of 310,000 active; active = well fitted inhibition curve with a large enough effect; inconclusive = small, poorly fitted or top-dose-only effect; inactive = no such curve, though single readings can be large or run the other way; tested in A549 cells; also: nearly all actives have a fitted effect of over 35% in size; inactives centre near -10
VACV Venus inh – vaccinia inhibition (Venus reporter) | AID 720580 | Potency, µM (titrated, usually from 36.5 µM), for the others: at the top dose activity change, negative = inhibition, actives largely listed as inhibitors | Vaccinia virus Venus reporter expression, fluorescence | 0.46% of 330,000 active; active means well fitted inhibition curve with a large enough effect; inconclusive means small, poorly fitted or top-dose-only effect; inactive means no such curve, though single readings can be large or run the other way; tested in A549 cells; also: nearly all actives have a fitted effect of over 30% in size; inactives centre near -10
* = called active by the depositor; i = inactive; ? = inconclusive; nt = not tested or not shown; [ ] = dose if it differs, or a comment. % is scaled to controls: 0 for no effect and ±100 for the full control effect; potency is read from the fitted curve at half-maximal effect.

SMILES | VACV mCherry inh | VACV Venus inh
C#CCNC(=O)c1ccc(OCc2ccccc2)cc1Cl | -8% | -10%
O=C(c1ccccc1C(=O)N1CCN(c2ccc(F)cc2)CC1)N1CCN(c2ccc(F)cc2)CC1 | -23% | -24%
O=C(O)C1C2CCC(O2)C1C(=O)Nc1ccc(Cl)cc1F (stereo unspecified) | i | -6%
O=C(CN1C(=O)NC2(CCCC2)C1=O)Nc1ccc(C(F)(F)F)cc1 | 2% | -22%
CC(C)CC(=O)Nc1ccc2oc(-c3ccncc3)nc2c1 | nt | -21%
Fc1ccccc1Sc1ccccc1CNC1=NCCN1 | -25% | -25%
COC(=O)[C@@]1(Cc2ccc(F)cc2)[C@H]2c3cc(C(=O)N(C)C)n(Cc4ccccc4)c3C[C@H]2CN1C(=O)c1ccccc1 | -25% | ?
Cc1noc(C)c1CCC(=O)N1CCCC(CCC(=O)NCc2ccccc2F)C1 (stereo unspecified) | -10% | -7%
Cc1ccc(C(=O)c2oc3ccccc3c2NC(=O)COc2ccc(C(C)C)cc2)cc1 | 6% | 5%
CN(C(=O)CSC1=NC2C(N=N1)c1cc(Br)ccc1N2C)C1CCCCC1 (stereo unspecified) | -23% | -3%
CC(C)(C)c1ccc(NC(=O)N2CCCN(c3c(Cl)cncc3Cl)CC2)cc1 | -7% | -4%
O=C(OCC(=O)N1CCN(C(=O)c2ccco2)CC1)c1ccccc1C(=O)c1ccccc1 | nt | -11%
CCOC(=O)CC(NC(=O)c1cc2c(=O)n3cccc(C)c3nc2s1)c1ccc(OCC)c(OC)c1 (stereo unspecified) | -10% | -8%
Cc1cccc(NC(=O)C2CCCN(S(=O)(=O)c3ccc4[nH]c(=O)ccc4c3)C2)c1 (stereo unspecified) | -2% | 0%
CC(C(=O)Nc1cc([N+](=O)[O-])ccc1Cl)N1CCN(c2ccccc2)CC1 (stereo unspecified) | i | -7%
CCc1nc2ccc(C(=O)NCCc3ccccn3)cn2c1N(C)Cc1cccs1 | 33%[activator] | 1%
COc1ccc(-c2nnc(C3CCN(C(=O)c4ccccc4F)CC3)o2)cc1 | -12% | -14%
CCOC(=O)CSc1ncc(OC)c(=O)[nH]1 | -12% | -5%
N#CCCn1cc(C(CC(=O)c2ccccc2)C(=O)O)c2ccccc21 (stereo unspecified) | -5% | -4%
COc1ccc(-n2nc(C(=O)N3CCCCC3)c3ccccc3c2=O)cc1 | nt | -16%

Gathered by group, those above with a furan ring, fused or not.
SMILES | VACV mCherry inh | VACV Venus inh
Cc1ccc(C(=O)c2oc3ccccc3c2NC(=O)COc2ccc(C(C)C)cc2)cc1 | 6% | 5%
O=C(OCC(=O)N1CCN(C(=O)c2ccco2)CC1)c1ccccc1C(=O)c1ccccc1 | nt | -11%

(continued)
SMILES | VACV mCherry inh | VACV Venus inh
CCOc1ccc(NC(=O)Cn2sc3nc(C)cc(C)c3c2=O)cc1 | -7% | -5%
COc1ccc(OC)c(CNC(=O)c2cnc(N(C)C)nc2)c1 | 1% | 5%
COc1ccc(-c2noc(CCCOc3ccc(Cl)cc3Cl)n2)cc1 | i | -5%
CC(C)(C)c1ccc(C(=O)N2CCC2(C)C(=O)NCCC#N)cc1 (stereo unspecified) | 8% | 1%
COc1ccc(OC)c(NC(=O)c2cnc(Nc3ccccc3OC)c3ccccc23)c1 | ? | ?
CC(C)c1ccc(C2C(C(=O)c3ccco3)=C(O)C(=O)N2CC2CCCO2)cc1 (stereo unspecified) | -29% | -14%
C=CCC1(C#N)C(=S)NC2=C(C(=O)CC(C)(C)C2)C1c1ccc(Br)cc1 (stereo unspecified) | -17% | -9%
COc1ccc(NC(=O)CN(C)S(=O)(=O)c2ccc(Br)s2)cc1 | -20% | -20%
O=C(O)c1sccc1NC(=O)c1c(Cl)cccc1Cl | i | -1%
O=C1NC2c3ccccc3CC2O1 (stereo unspecified) | -20% | -6%
CCC(C(=O)NCCc1ccc(Cl)cc1)n1ccc2cc(S(=O)(=O)N3CCCCC3)ccc21 (stereo unspecified) | -17% | -21%
CSc1cccc(NC(C)=O)c1 | -16% | -3%
COc1ccc2cc(C(=O)NCc3ccco3)c(=O)oc2c1 | -18% | -12%
COc1ccc(N2CCN(c3csc4ccccc4c3=O)CC2)cc1 | -18% | -15%
Cc1csc(NC(=O)c2ccco2)n1 | -8% | -3%
CC(=O)Nc1ccc(CN2C(=O)C(CCc3ccccc3)ON=C2c2cnccn2)cc1 (stereo unspecified) | 35%[activator] | 0%
COc1ccc(NC(=O)c2cc(-c3cc(F)ccc3OC(C)C)n[nH]2)cc1OC | i | -16%
Cc1nn(C)c(C)c1CNC(=O)/C=C/c1ccccc1F | -1% | -11%
O=[N+]([O-])c1cc([N+](=O)[O-])c(Oc2cc(Cl)cc(Cl)c2)cc1NN1CCCCC1 | ? | -15%
COc1cccc(OCC(O)CN2CCC(Cc3ccccc3)CC2)c1 (stereo unspecified) | nt | -16%
CC(=Nc1ccc(C)c(C)c1)C1=C(O)CCC1=O | nt | -16%
O=C(COC(=O)c1ccc2ncsc2c1)NC(=O)NCc1ccccc1 | 0% | 3%
COc1cccc(OC)c1C(=O)OCc1c(-c2ccccc2)ncc2ccccc12 | -5% | -26%
COc1cc(OC)c2c(c1O)OC(c1ccccc1)CC2=O (stereo unspecified) | -2% | 3%
O=C(COC(=O)c1cnccn1)c1ccc(-c2ccccc2)cc1 | -3% | -19%
O=C(Nc1cccs1)Nc1ccc(Br)cc1F | ? | -28%
CCCCCn1c(=O)c(C(=O)NC(C)c2ccccc2)c(O)c2ccccc21 (stereo unspecified) | i | -7%
CN(Cc1ccc(-n2cccn2)cc1)C(=O)c1cnn2c1NC(c1ccco1)CC2C(F)(F)F (stereo unspecified) | ? | -28%
Nc1[nH][nH]c(=O)c1N=Nc1cccc(Cl)c1 | -13% | -9%
O=C(CSc1nc2ccccc2s1)Nc1ccc2c(c1)OCO2 | i | -14%
COc1ccc2c(c1)c(=O)c(C(=O)c1ccc(C)cc1)cn2Cc1ccccc1F | -26% | -24%
CCc1ccc(-n2nc(CO)c(C(=O)NC(C)c3ccc(Cl)cc3)n2)cc1 (stereo unspecified) | -16% | -16%
CCCc1nc2oc3ccccc3c(=O)c2c(=O)n1CCCOC | -4%[7.34 µM] | -1%[7.34 µM]
O=c1nc(SCc2c(F)cccc2Cl)nc(-c2ccc(Cl)cc2)[nH]1 | i | -9%
CC(=O)Nc1ccc(NC(=O)Cn2cc3c(n2)CCCCC3)cc1 | -4% | -6%
COCCn1c(SCC(=O)c2cc(C)n(C)c2C)nc2ccccc2c1=O | -16% | -15%
COc1ccc(/C=C2\SC(=S)N(CCC(=O)N3CCOCC3)C2=O)cc1 | -28% | ?
COc1ccc(CNC(=O)COC(=O)c2ccc(C(=O)c3ccccc3)cc2)cc1 | -17% | 0%
Cc1ccc(S(=O)(=O)NC(=O)c2ccccc2)cc1C(C)C | -10% | -2%
COc1ccc(CN(Cc2ccc(C(=O)O)cc2)C(=S)Nc2ccccc2F)cc1OC | -1% | -7%
CCOC(=O)c1c(C)[nH]c(C)c1C(=O)COC(=O)[C@@H](NC(=O)c1ccco1)C(C)C | -17% | -3%
CC(=O)N1CCc2cc(NS(=O)(=O)c3cccs3)ccc21 | nt | -5%
CCOc1ncccc1C(=O)OCc1cc(=O)oc2c(C)c(C)ccc12 | 2% | 3%
Nc1nc2c(ncn2C2OC(COC(=O)c3ccccc3)C(OC(=O)c3ccccc3)C2OC(=O)c2ccccc2)c(=O)[nH]1 (stereo unspecified) | i | -6%
COC(=O)c1ccc(-c2noc(CN(C)Cc3ccncc3C)n2)cc1 | -8% | -17%
O=C(COc1cccnc1[N+](=O)[O-])N1CCN(S(=O)(=O)c2ccc3ccccc3c2)CC1 | -16% | -8%
CC(C)CCOc1cccc(OCC(=O)Nc2ccncc2)c1 | -22% | 3%
CCOC(=O)c1cnn(-c2ccccc2)c1-n1cccc1C(=O)C(=O)Nc1ccccc1 | nt | -4%
O=C(NCCc1nnc2ccc(N3CCCCCC3)nn12)c1ccccc1F | -11% | -11%
O=C(N/C(=C\c1ccc(Br)cc1)C(=O)N1CCCC1)c1ccccc1F | -4% | -11%
COc1ccc(-n2cc(C(=O)Oc3cc(C)cc(C)c3)c3ccccc3c2=O)cc1 | -22% | -15%
C[C@@H]1CN([C@H](C)CO)C(=O)CCCn2nncc2CO[C@H]1CN(C)Cc1ccc(C(=O)O)cc1 | -17% | -1%
COc1ccc(CC(=O)NCCc2ccc(OC)c(OC)c2)cc1 | i | -9%
NC(=O)c1cccc2c3c([nH]c12)CCCC3 | -6%[1.46 µM] | ?
CN(Cc1ccno1)C(=O)CC1C(=O)NCCN1CC(c1ccccc1)c1ccccc1 (stereo unspecified) | -25% | -7%
COc1ccc(NC(=O)C2CCN(c3nc4ccccc4[nH]3)CC2)cc1OC | -21% | -17%
COc1ccc(Cl)cc1NC(=O)CSc1nnc(C)c(=O)n1N | -2% | -12%
Cc1cccc(NC(=O)CN(c2ccc(C(C)C)cc2)S(=O)(=O)c2c(C)nn(C)c2C)n1 | i | -19%
CCn1c(=O)c2cc(C(=O)NCc3cc(OC)ccc3OC)sc2c2ccccc21 | ? | ?
CN(C)c1ccc(/C=N\Nc2ccccn2)cc1 | i | 4%

Carrying on.
SMILES | VACV mCherry inh | VACV Venus inh
O=C(c1cc2cc(F)ccc2[nH]1)N1CCC(Cc2ccccc2)CC1 | 0% | -13%
COc1ccc(C(CCNC(C)c2ccccc2)c2ccc(F)cc2)cc1 (stereo unspecified) | 11µM* | ?
CCCN(CC(=O)NC(=O)NC1CCCCC1)CC(=O)Nc1cc(Cl)ccc1Cl | -4% | -20%
Cc1ccc(N(CC(=O)N2CCCCCC2)S(C)(=O)=O)cc1 | i | -9%
C[C@H]1CN([C@@H](C)CO)C(=O)c2cccc(NC(=O)Nc3ccc(C(F)(F)F)cc3)c2O[C@@H]1CN(C)S(=O)(=O)c1ccc(Cl)cc1 | -3% | ?
CCN1CCN(c2oc(-c3ccc([N+](=O)[O-])cc3)nc2C#N)CC1 | i | -6%
CCOC(=O)C1CCCN(C(=O)c2cc3ncc(Br)cn3n2)C1 (stereo unspecified) | nt | -2%
CCCC1(C(=O)OCC)NC(c2ccc(N(C)C)cc2)C2C(=O)N(c3ccc(F)cc3)C(=O)C21 (stereo unspecified) | -7% | -2%
CN(C)NC(=O)c1csnc1-c1c(Cl)cccc1Cl | -9% | 6%
COC(=O)C1=C(c2cccc(OCc3ccccc3)c2)C[C@@H]2CC[C@H]1N2C(=O)NCCOc1ccccc1Cl | ? | ?
CC1(C)CC(=O)C2=C(C1)Nc1ccccc1NC2c1ccccn1 (stereo unspecified) | -22% | -12%
CC(=O)Nc1ccc(S(=O)(=O)Nc2nnc(CC(C)(C)C)s2)cc1 | -21% | -3%
[O-][N+]1=C2CCC/C(=N\O)C2=NC12CCCCC2 | -4% | -13%
CC(=O)Nc1ccc(SCCN2CC[C@@H](C)CCC2=O)cc1 | -9% | -19%
CCc1cc(C(=O)N/N=C/c2ccc(O)cc2O)c2ccccc2n1 | 1.1µM* | -23%
CCOC(=O)c1c(C)[nH]c(C(=O)N/N=C/c2ccc(Br)cc2)c1C | -27% | ?
O=C(Cc1cccs1)Nc1cccc(-c2ccc3nncn3n2)c1 | -6% | -3%
Cc1nc(N2CCCCC2)sc1C(=O)c1ccc(SCCO)c([N+](=O)[O-])c1 | ? | -23%
Fc1ccc(-c2nc(Nc3cccc(Cl)c3)nc3c2COc2ccccc2-3)cc1 | -6% | -1%
Cc1ccc(NC(=O)CN(C)C(=O)COC(=O)COc2ccc(C#N)cc2)cc1 | -23% | -15%

A draw from above in order of SMILES length, falling:
SMILES | VACV mCherry inh | VACV Venus inh
COC(=O)[C@@]1(Cc2ccc(F)cc2)[C@H]2c3cc(C(=O)N(C)C)n(Cc4ccccc4)c3C[C@H]2CN1C(=O)c1ccccc1 | -25% | ?
Cc1cccc(NC(=O)C2CCCN(S(=O)(=O)c3ccc4[nH]c(=O)ccc4c3)C2)c1 (stereo unspecified) | -2% | 0%
CC(C)(C)c1ccc(NC(=O)N2CCCN(c3c(Cl)cncc3Cl)CC2)cc1 | -7% | -4%
CCc1ccc(-n2nc(CO)c(C(=O)NC(C)c3ccc(Cl)cc3)n2)cc1 (stereo unspecified) | -16% | -16%
CCOc1ncccc1C(=O)OCc1cc(=O)oc2c(C)c(C)ccc12 | 2% | 3%

(next part)
SMILES | VACV mCherry inh | VACV Venus inh
CC1(C)CC(=O)C=C(Nc2ccccc2)C1 | -2% | -9%
C[C@@H](O)CC#Cc1ccc2oc(=O)c(-n3cc(-c4ccsc4)nn3)cc2c1 | -8% | -20%
COC(=O)C1=C(C)OC(N)=C(C#N)C1c1c(C)nn(C)c1C (stereo unspecified) | i | -6%
Cc1cc(NC(=O)CN2C(=O)[C@@H]3[C@H](C2=O)[C@@H]2C[C@H]3C(Br)C2Br)no1 (stereo partly specified) | i | -10%
CCC(C)C(=O)Nc1ccc(OC)cc1OC (stereo unspecified) | i | -9%
CC(C)COc1cccc(C(=O)NC(=S)NCc2cccnc2)c1 | -10% | -22%

Two records picked at random from those above:
SMILES | VACV mCherry inh | VACV Venus inh
C[C@@H](O)CC#Cc1ccc2oc(=O)c(-n3cc(-c4ccsc4)nn3)cc2c1 | -8% | -20%
COC(=O)C1=C(C)OC(N)=C(C#N)C1c1c(C)nn(C)c1C (stereo unspecified) | i | -6%

Bioassay records from PubChem.

The order is random; any-hit rate near 0.82%.
